High-throughput results deposited in PubChem by several laboratories.
A1 inh – inhibitors of the anti-apoptotic protein A1, read as caspase activation; actives 0.066% (n = 330,000); AID 2462; MEF A1-2A-BIM cells, Caspase-Glo 3/7 luminescence, 3 h; percent of clofoctol response, vehicle zero; caspase activation, % (no concentration beside the values);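 active = over half of replicate activation scores above 10%, or exactly half above 10 with the replicate mean above 10; inconclusive = replicate mean below 10 yet half the replicates above 10; inactive = over half of replicates below 10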;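 also: wells of about 30 µL received 50 nL stock; many hits fall short of the cut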
Ecoli rRNA inh – selective bacterial rRNA inhibition in E. coli; E. coli WT GFP vs humanized-ribosome RFP mutants, fluorescence, 24 h; hits give low values; DMSO median 0, no signal -100; GFP signal change (wild-type ribosome), % (test concentration not listed); actives 1.6% (n = 350,000);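 active = significant combined selectivity score with lowered wild-type GFP, culture density cut under 30%, mutant RFP and density less affected; inactive = any of these conditions unmet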; also: one replicate is shown; some compounds called inactive have numbers as strong as hits
LANA-H2A inh – blocks KSHV LANA binding to histone H2A/H2B. cell-free LANA-H2A/H2B peptide, fluorescence polarization. inhibition, % (test concentration not listed). actives 0.6% (n = 320,000); in the data active = inhibition mostly above about 10%, no sharp cut-off; inactive = mostly below about 6.7%;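 also: stock transfer was 7.5 nL into about 10 µL; 0% = median of vehicle wells and 100% = median of positive control wells; one replicate is shown; the record names a cut of 25% in any replicate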
ALR H2O2 inh – human ALR oxidase inhibition via reduced H2O2 | P55789 | purified ALR, DTT oxidation, H2O2 HRP-luminol luminescence | inhibition, % (test concentration not listed) | actives 3.8% (n = 290,000) | AID 485317;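 active = mean and each replicate at 75% or more; inconclusive = only one of the two met; inactive = neither met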;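 also: stock transfer was 7.5 nL into about 7.5 µL; 0% = neutral wells and 100% = wells with inactivated enzyme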
Target sequence (P55789 whole entry, looked up): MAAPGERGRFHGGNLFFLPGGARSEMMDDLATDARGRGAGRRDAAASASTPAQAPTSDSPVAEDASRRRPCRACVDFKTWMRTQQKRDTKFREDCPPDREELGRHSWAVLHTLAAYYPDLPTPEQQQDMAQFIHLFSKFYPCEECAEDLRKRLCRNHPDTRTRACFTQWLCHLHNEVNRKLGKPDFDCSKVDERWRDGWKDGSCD
Calb FLC – affects C. albicans growth with fluconazole; C. albicans CaCi-2 (fluconazole-resistant clinical isolate) + fluconazole, Alamar Blue growth, 48 h; growth inhibition, % (concentration not given with the values); actives 0.57% (n = 300,000); AID 1979;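 active = most replicates above 75%; inconclusive = exactly half above 75%; inactive = most below 75%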;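 also: all wells also contain fluconazole at 8 µg/ml as a sub-toxic cotreatment; 0% = median of DMSO wells and 100% = median of geldanamycin control wells; wells of about 8 µL received 7.5 nL stock; the first replicate is given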
Beta2AR agonist – activates human beta-2 adrenergic receptor causing internalization. P07550. Am2.2-beta2AR cells, FAP receptor internalization, flow cytometry; reference of the scale not given here. response, % (concentration not given with the values). actives 0.43% (n = 340,000). AID 504454;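 active = response above a set limit, near 3 SD of response in nonfluorescent compounds, cut at about 42% in these data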;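 also: stock transfer was 100 nL into about 11 µL; a reference agonist was the positive control; negative values mostly stem from fluorescent compounds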
Target sequence (P07550 whole entry, looked up): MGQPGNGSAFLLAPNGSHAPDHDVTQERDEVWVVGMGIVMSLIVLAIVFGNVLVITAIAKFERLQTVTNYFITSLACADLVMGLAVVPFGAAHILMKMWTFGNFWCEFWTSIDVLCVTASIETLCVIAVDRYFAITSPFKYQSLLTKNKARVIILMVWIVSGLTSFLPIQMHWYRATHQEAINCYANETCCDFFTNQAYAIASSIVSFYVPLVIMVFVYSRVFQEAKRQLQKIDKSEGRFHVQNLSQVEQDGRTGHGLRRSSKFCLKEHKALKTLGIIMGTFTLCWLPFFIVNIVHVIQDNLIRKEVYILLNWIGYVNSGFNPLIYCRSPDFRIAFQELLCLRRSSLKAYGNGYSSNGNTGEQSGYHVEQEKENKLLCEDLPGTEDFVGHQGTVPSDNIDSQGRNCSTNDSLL
Beta cell apopt – beta cell apoptosis inhibition | protection from apoptosis, % (no concentration beside the values) | actives 0.8% (n = 300,000) | AID 435005 | INS-1E cytokine-induced death, ATP luminescence, 48 h; percent of positive-control rescue, neutral wells zero;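 active = all replicates at 75% or more, or half of them and the mean; inconclusive = half reach 75% but not the mean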;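 also: 0% = cytokine-treated negative control wells and 100% = positive control rescue; higher means more ATP so stronger rescue from cytokine killing; wells of about 40 µL received 100 nL stock; the first replicate is given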
T cruzi repl – T. cruzi replication inhibition. T. cruzi beta-gal in NIH3T3, luminescence, 90 h. inhibition, % (no concentration beside the values). actives 1.4% (n = 300,000);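 active = mean inhibition across valid replicates above about 55%, limit read from the data; inconclusive = mean below that limit but half or more replicates reach it; inactive = mean below it, under half of replicates reach it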;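 also: signal also drops with host cell toxicity which is not excluded here; 0% = plate median of DMSO wells and 100% = zero luminescence signal; higher percent means less beta-gal luminescence so fewer parasites; stock transfer was 50 nL into about 50 µL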
Ecoli rRNA inh OD600 – further read-out of Ecoli rRNA inh, marked with its call; OD600 change, %; measured here: OD600 growth;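 optical density of the mix in the first replicate; 0 = DMSO median and -100 = no signal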
Ecoli rRNA inh RFP – second read-out of Ecoli rRNA inh, no call of its own (marks repeat the call); RFP signal change, %; measured here: RFP humanized mutant strains;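 first replicate; 0 = DMSO median and -100 = no signal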
* = called active by the depositor; i = inactive; ? = inconclusive; / = not tested or not shown.

mol	A1 inh	Ecoli rRNA inh	Ecoli rRNA inh OD600	Ecoli rRNA inh RFP	LANA-H2A inh	ALR H2O2 inh	Calb FLC	Beta2AR agonist	Beta cell apopt	T cruzi repl
CCOC(=O)C1(Cc2ccc(OC)cc2)CCN(C(=O)CCN2CCCC2=O)CC1	-0.5	7	1	0.7	-4.0	-6	-1	-7	-8	-6
CCOc1ccc(-c2nc(S(=O)(=O)c3ccccc3)c(N3CCC(C(N)=O)CC3)o2)cc1	-0.3	11	8	-5.5	-4.0	6	-4	-9	-3	13
CC1CCC(NC(=O)CCS(=O)(=O)c2ccc3c(c2)NC(=O)CO3)CC1 (stereo unspecified)	-0.1	-1	8	-3.9	0.1	-6	-5	0	3	-6
CC(C)(C)c1cc(NC(=O)c2cccc([N+](=O)[O-])c2)no1	-7.4	/	/	/	-1.9	-10	-12	0	-1	15
Cc1ccccc1-n1c(=O)n(CCc2ccccc2)c(=O)c2[nH]cnc21	-0.6	18	3	0.8	-0.8	-1	-5	4	-2	-1
CC(C)Cc1cc(C(=O)N2CCC(N3CCC(C(=O)N4CCOCC4)CC3)CC2)n[nH]1	0.3	24	20	4.0	3.5	0	1	-4	1	-11
O=C(CCCc1nc2ccccc2s1)NC1CCOC1=O (stereo unspecified)	-0.2	5	7	-1.9	1.0	-2	-3	-3	-7	-14
O=S1(=O)CC(O)C(Nc2ccccc2Cl)C1 (stereo unspecified)	0.4	/	/	/	1.0	/	-5	-9	-2	-8
Cc1ccccc1-c1nnn(CC(=O)NCc2ccc3c(c2)OCO3)n1	0.9	/	/	/	-2.7	5	-14	3	5	8
CCOC(=O)c1ccc(CNC(=O)CSc2nnc(-c3ccncc3)o2)cc1	0.2	-8	3	0.3	1.7	1	1	-12	-8	9
CCOC(=O)C(O)(C1C(=O)CC(C)(C)CC1=O)C(F)(F)F (stereo unspecified)	-0.6	/	/	/	-2.6	2	-7	-5	-4	1
O=C(Nc1ccccc1)N(Cc1cccnc1)Cc1ccco1	-0.5	/	/	/	-4.5	-5	10	3	-4	22
COc1ccc(N(C)C(=O)c2ccc3c(c2)nnn3C)cc1	0.4	4	7	-0.4	1.3	-7	10	2	1	0
CCCc1cc(C(=O)Nc2c(C)n(C)n(-c3ccccc3)c2=O)no1	-0.7	1	-6	-8.3	3.3	5	8	0	7	-13
CC(=O)Nc1c(C(=O)c2ccc(F)cc2)oc2ccccc12	1.1	/	/	/	-9.6	-3	-11	0	1	-10
Cc1ccc(-c2csc3ncnc(N4CCN(c5ccccc5O)CC4)c23)cc1	0.9	-3	-21	-3.2	-1.6	6	-14	7	4	-13
COc1ccc(CCNc2nc(=S)[nH]c3cc(OC)c(OC)cc23)cc1OC	0.3	0	-6	-1.4	11	-4	-13	7	1	-84
Cc1c(C(=O)Nc2ccc(C(=O)O)cc2)cnn1C	-0.1	/	/	/	-8.8	-2	-13	16	-12	0
Cc1nnc(SCC(=O)N2CCN(Cc3ccccc3)CC2)s1	0.2	6	1	-10	-4.6	5	2	6	-2	-8
COC(=O)C1C(=O)C2=C(CC1C)NC(C)=C(C(=O)OC(C)C)C2c1ccc(C)o1 (stereo unspecified)	0.9	/	/	/	-3.0	1	32	-2	-5	3
Cc1ccc2nc(NCC(=O)NN)nc(-c3ccccc3)c2c1	-1.1	-3	12	19	3.8	-5	29	11	-1	17
COc1ccc(S(N)(=O)=O)cc1C(=O)OCC1CCCCC1	1.1	-1	-23	-4.8	1.3	8	8	-1	1	0
COc1ccc(-c2nc(CN3CCC(c4ccccc4)CC3)c(C)o2)cc1OC	-0.3	-12	-13	10.0	0.5	-16	-1	-2	-1	27
Cc1ccc(NC(=O)CN(C)S(=O)(=O)c2cnc[nH]2)cc1C	0.3	/	/	/	1.1	-13	-7	-4	1	-10
COc1ccc(S(=O)(=O)N2CCc3ccccc32)cc1OC	0.8	2	-9	4.0	1.8	-2	10	5	1	-1
Nc1nc(SCC(=O)NCc2ccccc2)[nH]c(=O)c1NC(=O)c1ccccc1F	0.4	/	/	/	-2.5	-1	-9	2	/	-21
Cc1cccc(C)c1NC(=S)NCc1ccccc1	-0.3	/	/	/	-0.4	30	0	22	4	-6
Cc1cccc(OCc2n(CC(=O)OC3CC(C)CCC3C(C)C)c3ccccc3[n+]2C)c1 (stereo unspecified)	1.3	/	/	/	-0.2	-12	102*	10	106*	65*
Cc1ccc(N2C(=O)C3C4C=CC(C4)C3C2=O)cc1 (stereo unspecified)	0.9	/	/	/	-3.2	1	-2	2	-2	-18
CCCC1=NN(c2ccc([N+](=O)[O-])cc2)C(=O)/C1=C/N(C)C	-7.2	3	10	-7.9	4.7	-19	-4	5	-6	-7
O=C1C=C(c2cccc3c2sc2ccccc23)C[C@@H](c2ccc(Cl)cc2)C1	-0.1	16	14	2.3	2.8	-1	/	0	14	/
CCc1cc(=O)oc2cc(C)cc(OCC(=O)N3CCC(C(=O)O)CC3)c12	0.1	6	2	-4.8	-5.3	-13	6	-10	1	-3
CC(c1ccccc1)C1CC(=O)N(Cc2ccco2)C1=O (stereo unspecified)	1.0	/	/	/	0.3	/	-1	3	-5	2
C=C(C)COc1ccc(-c2n[nH]c(C)c2Oc2ccccc2OC)c(O)c1	0.8	/	/	/	0.5	4	8	10	7	6
COc1ccc(NC(=O)N2CCC(CO)(CC3CCCCO3)CC2)c(OC)c1 (stereo unspecified)	0.0	0	9	6.6	-0.1	-5	5	4	3	-15
Cc1cccc(N2CCN(C(=O)c3ccc(Cl)c(S(=O)(=O)N4CCc5ccccc5C4)c3)CC2)c1C	0.0	/	/	/	1.2	-4	1	-1	8	59*
Cc1ccc(NC(=O)c2cccc(C(=O)Nc3ccc(C)cc3C(=O)O)c2)c(C(=O)O)c1	-3.9	-6	1	4.1	2.1	99*	-2	9	4	1
CS(=O)(=O)N(CC(=O)Nc1ccccc1C(=O)N1CCCC1)c1cccc([N+](=O)[O-])c1	0.9	10	-1	-9.5	3.5	-16	-1	3	-2	-5
CC(=O)Nc1ccc(S(=O)(=O)N2CCC(=O)Nc3ccccc32)cc1	-0.4	5	9	0.6	1.5	1	1	4	0	4
O=C(c1cnccn1)N1CCN(S(=O)(=O)c2cccc(Cl)c2)CC1	1.3	1	-1	-1.0	-0.2	-2	/	-2	3	/
CCOc1ccc(CCNS(=O)(=O)c2cn(C)cn2)cc1OCC	-1.5	-3	4	0.3	9.6	-1	-8	-1	-2	21
Cn1cc(Br)c(C(=O)Nc2ncc(Br)s2)n1	-6.2	0	2	-2.5	0.3	-14	-17	2	1	-10
CCN1CCN(c2c(Cl)cccc2NC(=O)c2cccs2)CC1	1.4	9	14	-1.0	-2.2	-1	4	-8	-2	19
COc1ccc(N2CCN(C(=O)CSc3nnc4c(C)cc5ccc(C)c(C)c5n34)CC2)cc1	0.4	/	/	/	0.5	?	-9	-4	1	-2
CNC(=O)CSCCn1c(SCC(=O)NC)nc2ccccc2c1=O	-0.3	/	/	/	0.8	-7	8	-4	0	-6
S=C(NCc1ccccn1)Nc1cccc(Cl)c1	-0.5	/	/	/	0.9	-12	-8	4	-9	-16
CSc1ccc(CN(C)Cc2cc(=O)oc3c(C)c(C)ccc23)cc1	0.1	-19	-17	-4.7	-5.1	-3	7	16	3	36
Cc1cccn2c(=O)c(/C=C(\C#N)C(N)=O)c(N3CCN(c4ccccc4)CC3)nc12	-0.3	-7	-15	5.0	3.1	29	13	19	3	7
Cc1cc2ncn(CCC(=O)NC3CCCC3)c2cc1C	0.5	14	9	-2.1	7.5	-4	-9	-2	9	-1
COc1ccc(C(NC(=O)CN2C(=O)NC3(CCc4ccccc43)C2=O)c2ccccc2)cc1 (stereo unspecified)	0.0	-12	-21	-1.6	2.3	/	/	1	-1	/

(list continues)
mol	A1 inh	Ecoli rRNA inh	Ecoli rRNA inh OD600	Ecoli rRNA inh RFP	LANA-H2A inh	ALR H2O2 inh	Calb FLC	Beta2AR agonist	Beta cell apopt	T cruzi repl
CCN(CC)S(=O)(=O)c1ccc(N2CCOCC2)c(NCC(=O)Nc2ccc(F)cc2)c1	0.9	-16	-7	-0.4	4.4	1	-2	4	-4	14
Cc1cc(-n2c(C)cc(C(=O)CSc3ccc4c(c3)OCCO4)c2C)no1	0.4	/	/	/	-1.2	?	8	5	-8	-2
Cc1nn(C)c(C(=O)Sc2cccc(Cl)c2)c1[N+](=O)[O-]	1.0	2	-9	-1.6	2.0	98*	8	10	2	14
O=C1Cc2cccc3cccc1c23	0.2	/	/	/	0.4	-3	-1	-4	-2	7
Cc1ccc(C)c(NS(=O)(=O)c2cc(C(=O)NCCC3=CCCCC3)ccc2C)c1	0.9	/	/	/	-3.6	-1	11	-5	/	40
CCN1CCc2c(OCC(=O)N3CCCc4ccccc43)cccc2C1=O	0.3	-9	-5	1.8	3.4	9	6	-5	-2	2
CCOc1ccccc1C(=O)NCC(=O)OCC(=O)NCCc1ccc(S(N)(=O)=O)cc1	-0.2	/	/	/	-0.1	-3	3	3	-7	-5
O=C(NC1CCCCCC1)c1ccc(OCC2CCCO2)cc1 (stereo unspecified)	-5.7	/	/	/	0.4	26	-3	1	10	0
O=C(Nc1ccccc1Oc1cccnc1)C1CCCN(Cc2cccc(Cl)c2)C1 (stereo unspecified)	1.2	0	-12	0.9	-9.3	/	3	-19	-1	27
CCOC(=O)C1CCN(Cc2ccc(OC)cc2OC)CC1	-3.5	/	/	/	-10	-19	-5	4	-14	4
O=C(c1ccc([N+](=O)[O-])cc1)N1CCN(Cc2ccccc2)CC1	0.7	/	/	/	-0.6	-39	1	5	3	2
COc1cccc(/C=C/C(=O)N(C)CC(=O)Nc2ccc(Cl)c(C(F)(F)F)c2)c1	-0.1	-3	1	2.1	-3.4	-1	-7	0	1	-4
CCCCn1c(-c2ccc(Cl)c(Cl)c2)nc2cc3[nH]c(=O)c(C(C)C)nc3cc21	0.6	-2	-10	4.9	0.0	-5	17	-4	10	33
Cc1oc(C)c2c(=O)ccc3c(c12)OC(N)=C(C#N)C3c1ccccc1 (stereo unspecified)	0.8	/	/	/	3.0	-1	16	-115	/	-25
COc1ccc(NCc2ccc(OC)c(OC)c2)cc1	0.9	/	/	/	-2.6	12	-5	/	3	-3
CCOC(=O)c1sc(=NC(=O)c2ccc(C)cc2)n(C)c1C	-0.6	13	5	0.1	4.7	11	-24	0	-3	13
CCOc1ccc(CC(=O)N2CCC3(CC2)NCCc2[nH]cnc23)cc1	-0.6	4	4	1.6	5.4	-5	4	6	0	-20
CCN1CCc2c(sc(NC(=O)Nc3ccc(Cl)c(Cl)c3)c2C(N)=O)C1	-0.9	55	-11	0.4	-13	54	/	i	0	/

An excerpt; rates above refer to the full screens.
